# KCNQ2 block: KCNQ2 potassium channel inhibitors, primary screen, cell-based, CHO-K1, FluxOR thallium flux, B-score (AID 2156) | O88943 | 1.1% of 310,000 active | B-score at 10 µM | 20 min; hits give low values; only compounds with negative scores are shown here; some inactives read as strong as hits;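 active = fluorescence ratio B-score at most minus 3 library SDs, with starting brightness B-score within 2 library SDs, cut at about -5.5 in these data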
# Target sequence (O88943 whole entry, looked up): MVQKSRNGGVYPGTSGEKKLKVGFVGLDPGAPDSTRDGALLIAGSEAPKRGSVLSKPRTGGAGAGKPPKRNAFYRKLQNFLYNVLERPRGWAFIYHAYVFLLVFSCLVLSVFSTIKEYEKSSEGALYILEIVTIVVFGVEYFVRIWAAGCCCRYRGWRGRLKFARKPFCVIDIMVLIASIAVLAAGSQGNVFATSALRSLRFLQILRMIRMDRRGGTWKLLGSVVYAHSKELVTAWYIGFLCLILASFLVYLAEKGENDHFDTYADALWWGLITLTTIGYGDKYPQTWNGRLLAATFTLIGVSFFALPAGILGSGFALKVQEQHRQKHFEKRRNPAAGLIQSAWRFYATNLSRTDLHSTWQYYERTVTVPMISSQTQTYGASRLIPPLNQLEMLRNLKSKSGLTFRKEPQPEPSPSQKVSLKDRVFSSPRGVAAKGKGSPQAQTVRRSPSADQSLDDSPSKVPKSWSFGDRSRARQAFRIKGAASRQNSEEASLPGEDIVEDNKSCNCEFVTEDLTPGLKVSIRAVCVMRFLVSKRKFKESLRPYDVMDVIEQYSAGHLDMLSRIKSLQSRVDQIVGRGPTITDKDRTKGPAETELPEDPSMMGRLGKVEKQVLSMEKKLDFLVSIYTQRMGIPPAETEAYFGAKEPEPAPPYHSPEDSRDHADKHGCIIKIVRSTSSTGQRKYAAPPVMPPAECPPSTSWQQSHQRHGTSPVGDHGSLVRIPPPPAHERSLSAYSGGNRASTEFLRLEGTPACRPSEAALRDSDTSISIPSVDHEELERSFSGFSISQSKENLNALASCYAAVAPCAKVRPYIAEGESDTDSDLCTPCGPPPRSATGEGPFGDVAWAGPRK
# KCNQ2 block baseline: recorded beside KCNQ2 block, whose call it bears; B-score; measured here: initial fluorescence intensity artifact check;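 brightness before thallium and not channel activity; 0 = typical well and far values either way flag optical interference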
# An asterisk follows results filed as active; i = inactive. The list is partial. The share of hits here may be higher or lower than overall.
SMILES | KCNQ2 block | KCNQ2 block baseline
O=C(CCNS(=O)(=O)c1ccccc1F)NCc1ccc2c(c1)OCO2 | i | 0.03
COc1ccc(-c2noc(CN3CCCCC3c3nccn3C)n2)cc1 (stereo not drawn) | i | 0.61
COc1ccc(S(=O)(=O)N2CCOC2CNC(=O)C(=O)NCCc2ccccc2OC)cc1C (stereo not drawn) | i | 0.86
COc1ccccc1NC(=O)C1CCN(S(=O)(=O)c2ccc3c(c2)NC(=O)CO3)CC1 | i | 0.15
O=C(Cc1ccccc1)NNC(=O)Cc1ccccc1 | i | 0.01
Cc1cc(C)cc(N(C(=O)CNS(=O)(=O)c2ccccc2)C(C(=O)NCc2ccccc2)c2ccc(C)o2)c1 (stereo not drawn) | i | -2.3
S=C(Nc1ccccc1)Nc1ccccc1-n1cccc1 | i | 0.41
CC(NC(=O)COC(=O)c1ccc2c(c1)OCO2)c1ccccc1 (stereo not drawn) | i | -0.14
Cc1nn(C(=O)c2cccc([N+](=O)[O-])c2)c(C)c1Sc1ccccc1 | i | 0.3
CCSc1nnc(CNc2ccc(C)cc2)n1C | i | 0.01
O=C(N/N=C/c1c(O)ccc2ccccc12)c1ccc(Br)o1 | i | 1.1
O=C(CSc1nccn1-c1cccc(Cl)c1)NO | i | 4.9
NC(=O)c1c[nH]c2ccccc12 | i | -0.52
Cn1c(SCC(=O)Nc2ccc3[nH]c(=O)[nH]c3c2)nnc1-c1ccccc1 | i | -1.1
CCOc1ccccc1NC(=O)CCS(=O)(=O)c1ccc(OC)cc1 | i | 0.99
CCc1nc(N2CCN(Cc3ccc4c(c3)OCO4)CC2)c2oc3ccccc3c2n1 | -6.5* | -0.19*
COc1ccccc1CNC(=O)C1CCN(Cc2nc(-c3cccc(Cl)c3)oc2C)CC1 | -7.8* | 0.62*
COC(=O)c1cc(S(=O)(=O)NCC2CCN(Cc3cccc(F)c3)CC2)c[nH]1 | i | 0.84
Cc1cc(C=O)c(C)n1-c1ccc(N2CCOCC2)cc1 | i | 0.38
CCN(CC)C(=O)CSc1nc2ccc(NC(=O)CSc3nnc(COc4ccccc4C)n3C)cc2s1 | i | 0.73
Cc1cccc(C)c1NC(=O)COC(=O)c1cc(=O)c2ccccc2o1 | i | 0.09
CCN(C(=O)c1cc2ccccc2oc1=O)c1cccc(C)c1 | i | -0.63
CCN(C(=O)COC(=O)CNC(=O)c1ccc(C)s1)c1ccccc1 | i | 1.2
CCOC(=O)c1[nH]cnc1C(=O)NCc1ccccc1 | i | -0.29
Cc1ccccc1NC(=O)/C=C/c1ccc([N+](=O)[O-])s1 | -5.7* | -1.4*

# Next part.
SMILES | KCNQ2 block | KCNQ2 block baseline
C=C(C)COc1ccc(-c2n[nH]c(C)c2-c2ccc(OC)cc2)c(O)c1 | i | -2.3
CC(=O)Oc1ccc(C)cc1N1C(=O)c2ccc(C(=O)O)cc2C1=O | i | 1.5
CN(C(=O)COC(=O)c1ccccc1C(=O)N1CCN(c2ccccc2)CC1)c1ccccc1 | i | -0.02
Cc1ccccc1-n1cc(-c2ccc(Br)cc2)nc1SCC(N)=O | i | 1.1
Nn1c(SCC(=O)Nc2cccc(C(F)(F)F)c2)nncc1=O | i | 0.78
Cc1ccc(Cl)cc1N1CCN(C(=O)C2CCCN(S(=O)(=O)c3cnc[nH]3)C2)CC1 (stereo not drawn) | i | -0.06
CN1CCN(c2ccc(-c3ccnn3C(=O)Nc3ccccc3)cc2)CC1 | i | -0.44
COc1cc(C2CC(=O)C=C(O)C2)cc(OC)c1OC (stereo not drawn) | i | 0.94
Cc1ccc(S(=O)(=O)C/N=C(/NC(=S)N(c2ccccc2)c2ccccc2)c2ccccc2)cc1 | -5.9* | 0.16*
COCCn1nnnc1CN1CCN2CCCC2C1 (stereo not drawn) | i | -7.6
O=C(COc1ccccc1)N(Cc1cc2ccccc2[nH]c1=O)CC1CCCO1 (stereo not drawn) | i | -0.11
O=C(OCC#CCSc1nc2ccccc2o1)c1cc2ccccc2o1 | i | 0.39
O=C(COC(=O)Cc1ccc(Br)cc1)NC1CCCCC1 | i | -1.5
COCCCNC(=O)c1ccc(Cn2c(=O)c3ccccc3n(CC(=O)NCc3ccco3)c2=O)cc1 | i | -1.4
COC(=O)c1ccc(NS(=O)(=O)c2ccc(Cl)cc2)o1 | i | 0.72
COc1ccc(Nc2cc(C(=O)NC3CCCC3)c3ccccc3n2)c(OC)c1 | i | -0.03
CCN1CCN(C(=S)NCC(C)C)CC1 | i | -0.68
Cc1cc(Cl)ccc1Oc1nc(-c2ccc(F)cc2)ccc1C#N | i | -0.71
Cc1ccc2ccc(C)[n+](CCCS(=O)(=O)[O-])c2c1 | i | 0.4
CC(C)Cc1nc2ccccc2[nH]1 | i | -3.1
COc1ccccc1C(CNc1nc(C(F)(F)F)nc2ccccc12)N(C)C (stereo not drawn) | i | -0.04
CN(C)S(=O)(=O)c1cccc(NC(=S)N2CCc3ccccc32)c1 | i | 1.5
Cc1cccc(NS(=O)(=O)c2ccc(C(C)(C)C)cc2)n1 | i | 0.72
CN(Cc1ccccc1NC(=O)c1ccc(S(=O)(=O)N(C)C)cc1)C1CCCCC1 | i | -0.28
COc1ccc(N2CCN(c3nc(C)c(C)c(=O)[nH]3)CC2)cc1 | i | -1.2

# Further compounds follow:
SMILES | KCNQ2 block | KCNQ2 block baseline
COc1ccc(-n2c(COc3ccc(C)cc3)n[nH]c2=S)cc1 | i | -0.76
Cc1ccc(NCc2nc3ccccc3n2CCOc2ccccc2)cc1 | i | -0.05
COc1ccc(-c2ccc(CCC(=O)O)n2-c2ccc(O)cc2)cc1 | i | 3.5
O=C(O)CCc1ccc(-c2cccs2)n1NC(=O)c1ccc(Cl)cc1 | i | -0.14
CN(C)c1ccc(-n2cccc2/C=C/[N+](=O)[O-])cc1 | i | 0.71
O=C(CC1S/C(=N/N=C2CCCCCC2)NC1=O)Nc1ccccc1C(F)(F)F (stereo not drawn) | i | -2.1
Cc1nc(-c2ccc(C(=O)Nc3ccc(F)cc3)cc2)cs1 | i | -0.16
N#CC1(N2CCN(C(=O)c3ccccc3)CC2)CCCCC1 | i | -0.02
COc1cc(C(=O)Oc2c(OC)cc(C(=S)N3CCOCC3)cc2OC)cc(OC)c1OC | i | 0.78
CCc1nc2ccccc2c(C(=O)Oc2ccc(C(=O)OC)cc2)c1C | i | 1.4
O=C(N/C(=C/c1cccc([N+](=O)[O-])c1)C(=O)N1CCCC1)c1ccccc1 | i | -2.7
CSCCC(NC(=O)c1ccccc1Br)C(=O)NC(C)CCc1ccccc1 (stereo not drawn) | i | 0.85
Cc1nc(C)c(C)nc1C | i | 1.1
COc1ccc(N(C)C(=O)c2cc3c(s2)-c2ccc(Cl)cc2S(=O)(=O)C3)c(OC)c1 | i | 0.34
O=C(OCC1OC(Oc2ccc(O)cc2)C(O)C(O)C1O)c1ccccc1 (stereo not drawn) | i | -0.59
O=C(N/C(=C/c1ccc(Br)cc1)C(=O)N1CCCC1)c1ccccc1F | i | -0.29
O=C(CCCn1c(=O)[nH]c2ccccc2c1=O)N1CCN(c2ccccn2)CC1 | i | 1.6
COc1ccccc1N1CCN(/N=C/c2ccc(O)c(O)c2)CC1 | i | -0.39
Cc1c(OCC(=O)NCC(O)c2ccccc2)ccc2c(-c3ccccc3)cc(=O)oc12 (stereo not drawn) | i | -0.01
O=C(O)C1=NOC(CNc2ncc(C(F)(F)F)cc2Cl)C1 (stereo not drawn) | i | 1.2
Cc1ccnc(N/C=C/C(=O)c2ccc(Br)cc2)c1 | i | 3.2
Cc1ccc2c(c1)N(C(=O)CCC(=O)NCC(C)c1ccccc1)CC(C)O2 (stereo not drawn) | i | 0.1
COc1ccc(C)cc1NC(=O)CSc1ccc(Cl)cc1 | i | -0.7
O=C1CN(C(=O)COc2ccc(Br)cc2Br)c2ccccc2N1 | i | -3
CCc1ccccc1NC(=O)CN(c1ccc(OC)cc1OC)S(=O)(=O)c1ccccc1[N+](=O)[O-] | i | 1.1

# 5 compounds from above, arranged by the value under KCNQ2 block baseline, descending.
molecule	KCNQ2 block	KCNQ2 block baseline
COC(=O)c1cc(S(=O)(=O)NCC2CCN(Cc3cccc(F)c3)CC2)c[nH]1	i	0.84
COc1ccccc1NC(=O)C1CCN(S(=O)(=O)c2ccc3c(c2)NC(=O)CO3)CC1	i	0.15
Cc1c(OCC(=O)NCC(O)c2ccccc2)ccc2c(-c3ccccc3)cc(=O)oc12 (stereo not drawn)	i	-0.01
COc1ccc(Nc2cc(C(=O)NC3CCCC3)c3ccccc3n2)c(OC)c1	i	-0.03
CCOC(=O)c1[nH]cnc1C(=O)NCc1ccccc1	i	-0.29

# Of the compounds above, 2 contain a cyano group.
SMILES | KCNQ2 block | KCNQ2 block baseline
Cc1cc(Cl)ccc1Oc1nc(-c2ccc(F)cc2)ccc1C#N | i | -0.71
N#CC1(N2CCN(C(=O)c3ccccc3)CC2)CCCCC1 | i | -0.02

# Next section
SMILES | KCNQ2 block | KCNQ2 block baseline
O=C(Cc1ccc(F)cc1)Nc1ccc(Cl)cn1 | i | 0.04
O=C(CCNC(=O)c1ccccc1)Nc1ccc(F)c(Cl)c1 | i | -0.01
COc1ccc(-c2[nH]ncc2CN(C)Cc2cnccn2)c(OC)c1 | i | 1.6
CC(=O)COc1ccc2c(c1C)O/C(=C\c1ccco1)C2=O | i | -2.3
C=CCNc1nc(Nc2ccc(OC)cc2OC)nc(OCC)n1 | i | 0.35
Cc1ccc(C(=O)N2CCCC(Nc3ccc(F)cc3)C2)cc1C (stereo not drawn) | i | -0.6
CCOC(=O)C(NC(C)=O)(Nc1ccc(S(=O)(=O)Nc2nccs2)cc1)C(F)(F)F (stereo not drawn) | i | 0.5
CC(C)COC(=O)c1ccc2c(c1O)C(=O)c1ccccc1C2=O | i | -0.63
CC(C)(C)NC(=O)C(c1ccc(F)cc1)N(Cc1ccco1)C(=O)Cn1nnc(-c2cccs2)n1 (stereo not drawn) | i | -1.5
CCOc1ccccc1NC(=O)CN(c1ccc(OC)cc1)S(=O)(=O)c1c(C)noc1C | i | -0.58
CC(C)CC1NC(=O)N(CC(=O)N2CCN(S(=O)(=O)c3ccc4ccccc4c3)CC2)C1=O (stereo not drawn) | i | -1.1
CCOC(=O)CN1C(=O)N[C@@H](c2cccc(F)c2)C(C(C)=O)=C1C | i | 0.12
Cc1cccc(N(C(=O)c2snc(C(N)=O)c2N)C(C(=O)NCC2CCCO2)c2cccs2)c1 (stereo not drawn) | i | 0.41
O=[N+]([O-])c1ccc(N2CCN(c3ccccc3)CC2)nc1 | i | -0.14
CCCCN(CC)C(=O)CSc1nc2c(sc(=S)n2-c2ccc(OCC)cc2)c(=O)[nH]1 | i | 1
O=S(=O)(/C=C/c1ccccc1)N1CCN(Cc2ccccc2)CC1 | i | 0.24
COc1ccc(C2/C=C\CN(C(=O)Nc3ccccc3)CC(=O)N2Cc2ccc(F)cc2)cc1 (stereo not drawn) | i | 0.99
COc1ccc(S(=O)(=O)N2CCC(C(=O)NCC3CCCO3)CC2)cc1Cl (stereo not drawn) | i | 1.1
Cc1nn(Cc2ccc(F)cc2)c(C)c1NC(=O)c1cnn2c1NC(c1ccccc1)CC2C(F)(F)F (stereo not drawn) | i | 0.76
O=C(Cc1ccccc1)NCc1n[nH]c(=S)n1-c1ccc(Br)cc1 | i | -0.03
S=C1SCN(CC2CC2)CN1CC1CC1 | i | 0.99
O=C(c1cc(S(=O)(=O)N2CCOCC2)ccc1F)N1CCN(Cc2ccccc2)CC1 | i | -0.23
Cc1ccc(NC(=O)c2ccc(OC(=O)c3ccco3)cc2)cc1 | i | -0.01
Cc1cc2nc(C3CCCN(C(=S)Nc4ccccc4C)C3)[nH]c2cc1C (stereo not drawn) | i | 0.05
Nc1nonc1C(=O)N/N=C/c1ccc(-c2ccc(Cl)c(C(=O)O)c2)o1 | i | 0.52

# New compounds follow
SMILES | KCNQ2 block | KCNQ2 block baseline
CCOC(=O)N1CCC(NC(=O)c2cc(C(=O)NCC(OC)OC)ccc2CO)CC1 | i | -0.99
CSCc1c(C(=O)Nc2ccc3c(c2)OCO3)oc2ccccc12 | i | -0.49
COc1ccc(C2N(c3ccc(OC)cc3)C(=S)N3CCCN23)cc1 (stereo not drawn) | i | 0.97
CCCCOc1ccc(-c2ncc(N)cn2)cc1 | i | 0.09
O=C(NCc1cccc(C(F)(F)F)c1)C1CCCN(c2ncccn2)C1 (stereo not drawn) | i | -0.05
CN(C)c1ccc(S(=O)(=O)N2CCCCC2)cc1NC(=O)COc1ccccc1F | i | 0.4
COc1ccc(-n2nc3c(N4CCC(C(=O)NCc5ccco5)CC4)nnc(C)c3c2C)cc1 | i | -0.36
C=CCn1c(CCCOc2ccc(Cl)cc2Cl)nnc1SCC(=O)Nc1nccs1 | i | 0.05
Cc1ccc(C)c(N2CCN(S(=O)(=O)c3ccc4c(c3)CCC(=O)N4)CC2)c1 | i | 0.3
CCOCCCN(CC(=O)NC1CCCC1)C(=O)C(=O)Nc1ccc2c(c1)OCCO2 | i | 2
Cc1cccnc1NC(=O)c1ccc(C(=O)c2ccccc2)cc1 | i | -3.5
O=C(COC(=O)C1CC1)Nc1ccccc1Sc1ccccc1 | i | 0.88
Cc1cccc(CSc2nnc(-c3ccco3)o2)c1 | i | -1.6
COc1ccc(NC(=O)c2ccc3c(c2)OCO3)cc1Cl | i | 1.1
Cc1ccc(N=Cc2cccc(O)c2O)c(C)c1 | i | 0.92
O=C(N/C(=C\c1ccc(F)cc1)C(=O)N1CCCCCC1)c1ccccc1 | i | -0.96
COc1ccccc1NC(=O)c1cnc(SCC(=O)NCCc2ccccc2)n(C)c1=O | i | 3
Cc1cc[n+](-c2[nH]c(=O)sc2/C=N/N=C(\[O-])c2ccccc2)cc1C | i | 13

# Two compounds picked at random from the list so far:
SMILES | KCNQ2 block | KCNQ2 block baseline
COc1ccc(C2N(c3ccc(OC)cc3)C(=S)N3CCCN23)cc1 (stereo not drawn) | i | 0.97
Cc1cc[n+](-c2[nH]c(=O)sc2/C=N/N=C(\[O-])c2ccccc2)cc1C | i | 13
